Screening data from PubChem BioAssay.
HCMV NEC inh – disrupts HCMV UL50-UL53 complex binding; HTRF UL50-UL53 interaction, normalized percent inhibition; inhibition, % (test concentration not listed); 0.15% of 190,000 active; AID 1918969;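 active = both replicates at 50% or more, plus weaker picks with an unusually low signal ratio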;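 also: stock transfer was 100 nL into about 20 µL; 0% = negative control wells and 100% = wells with untagged competitor protein; inactives centre near -12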
GIV Gai3 FP – GIV-Galpha-i interaction inhibition; P08753; Galpha-i3/FITC-GIV peptide fluorescence polarization, 90 min; stronger effect = lower value; scaled: aluminum fluoride 0%, vehicle 100%; percent of control (FP), % (test concentration not listed); 0.42% of 210,000 active;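 active = replicate mean at 85% of control or lower, very high polarization wells dropped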;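 also: wells of about 15 µL received 100 nL stock; the first replicate is given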
Target sequence (P08753 whole entry, looked up): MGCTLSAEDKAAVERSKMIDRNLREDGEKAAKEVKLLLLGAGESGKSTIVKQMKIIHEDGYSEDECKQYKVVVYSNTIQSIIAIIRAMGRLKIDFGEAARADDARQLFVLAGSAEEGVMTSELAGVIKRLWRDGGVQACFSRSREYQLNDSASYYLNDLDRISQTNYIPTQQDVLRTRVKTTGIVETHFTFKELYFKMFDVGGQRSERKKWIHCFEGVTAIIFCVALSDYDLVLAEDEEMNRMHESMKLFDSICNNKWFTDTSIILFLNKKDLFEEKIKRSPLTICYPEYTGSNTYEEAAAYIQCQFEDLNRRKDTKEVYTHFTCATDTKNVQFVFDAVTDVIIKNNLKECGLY
Sa growth 42C – S. aureus growth inhibition; S. aureus RN4220 growth, OD600, 20 h, 42 °C; stronger effect = lower value; relative growth, % (test concentration not listed); 0.53% of 170,000 active;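 active = growth at 42 °C up to 50% and 20 or more points under that at 30 °C, or under 10% at both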;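 also: 300 nL library stock went into each well; scaled to the means of positive and negative controls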
Sa growth 42C second temp – also measured in Sa growth 42C; calls as there; relative growth, %; measured here: growth at 30 °C;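 optical density after 20 h as mean of two plates; 100% = untreated growth and lower means inhibition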
Numbers without * were called inactive; x = not tested or not shown; & = joins results of further samples.

The line under a structure holds: Sa growth 42C	HCMV NEC inh	GIV Gai3 FP	Sa growth 42C second temp
- CCN(C(=O)CSC1=NCCS1)c1ccccc1
 : 104	-16	x	71
- O=C(NC1=NCCS1)c1cc(-c2ccc3c(c2)OCO3)nc2c1cnn2Cc1ccc(Cl)cc1
 : 64	-17	x	58
- Cc1nc(C)c(S(=O)(=O)NCc2c(-c3ccccc3)noc2C)s1
 : 103	-7	105	79
- O=C(CCS(=O)(=O)c1cc2c3c(c1)CCN3C(=O)CC2)Nc1cccc(Br)c1
 : 117	x	100	89
- CC(=O)Oc1ccc2c(c1C)CCCC2
 : 100	-8	105	93
- CCC(=O)Nc1ccc2nc(SCC(=O)N3CCc4ccccc43)sc2c1
 : 94	15	105	95
- O=S(=O)(c1ccccc1)c1cc2ccccc2oc1=Nc1ccccc1
 : 85	x	99	84
- COCCCNC(=O)c1ccc(Cn2c(SCc3cccc(C)c3)nc3cccnc32)cc1
 : 98	x	102	87
- Cc1ccc(S(=O)(=O)CCC(=O)N2CCN(c3nc4c(C)c(C)ccc4s3)CC2)cc1
 : 111	x	94	94
- Cc1c(C(=O)N2CCN(c3cccc(C(F)(F)F)c3)CC2)oc2ccccc12
 : 111	-3	104	106
- COC(=O)c1ccccc1NC(=O)c1cc2c(-c3ccc(OC)c(OC)c3)nn(C)c2s1
 : 94	-22	100	86
- CC(=O)N1c2ccc(S(=O)(=O)N(C)CC(=O)N(Cc3ccccc3)C(C)C)cc2CC1C (stereo unspecified)
 : 103	x	103	85
- O=C(CC1OCCN(Cc2ccccc2)C1=O)Nc1ccc2c(c1)OCCO2 (stereo unspecified)
 : 107	x	108	79
- COc1ccc(-c2cc(C(F)(F)F)nc(SCC(=O)NCc3ccc(OC)c(OC)c3)n2)cc1
 : 116	-2	102	100
- COc1ccccc1N1CCN(C(=O)c2ccc(CS(=O)c3ccccc3C)o2)CC1 (stereo unspecified)
 : 115	-11	97	86
- CCOC(=O)N1CCN(S(=O)(=O)c2ccc(C(=O)Nc3nc4ccc([N+](=O)[O-])cc4s3)cc2)CC1
 : x	-3	101	x
- COc1ccc(CCN(Cc2nc(-c3ccccc3)no2)Cc2nc(-c3ccccc3)no2)cc1OC
 : 105	3	107	97
- COc1ccc(OC)c(CNS(=O)(=O)c2c(C(=O)N3CCC(C)CC3)c(C)n(C)c2C)c1
 : 91	x	99	90
- CCOc1ccccc1N1CCN(S(=O)(=O)c2ccc(C3CCCCC3)cc2)CC1
 : 98	-22	98	87
- COCC(C)n1c(SCc2cc(=O)n3cc(C)ccc3n2)nc2ccccc2c1=O (stereo unspecified)
 : 88	-26	x	94
- CCS(=O)(=O)c1nc2ccccc2n1CC(=O)N(C(C)C)C(C)C
 : 99	-1	104	96
- COCc1cc(C)nc2sc(C(=O)N3CCN(c4ccccc4)CC3)c(N)c12
 : 100	x	103	92
- O=C(c1cccc(NC(=O)N2CCSc3ncccc32)c1)N1CCC2(CC1)OCCO2
 : 113	-19	104	93
- O=C(NC1CC(=O)N(c2ccc3c(c2)OCCO3)C1)c1c(F)cccc1Cl (stereo unspecified)
 : 81	x	97	99
- O=C(Nc1ccccc1)N1CCCC2CCCCC21 (stereo unspecified)
 : 111	2	102	89
- N#CN[n+]1ccc2ccccc2c1C(=O)c1ccc(Cl)cc1
 : 108	-18	104	87
- Cc1ccc2[nH]c(=O)c3cc(C(=O)N4CCN(c5ccccc5)CC4)sc3c2c1
 : 76	-14	105	86
- COc1ccc(CC(=O)OCC(=O)Nc2ccc3c(c2)OCCO3)cc1
 : 100	-14	x	93
- O=C(CCc1ccccc1)N1CCc2c([nH]c3ccccc23)C1c1ccc(F)cc1 (stereo unspecified)
 : 90	x	102	100
- COc1cc2[nH]c(=S)nc(NCCCOC(C)C)c2cc1OC
 : 94	-4	116	88

Compound profiles (already shown):
Results for CCC(=O)Nc1ccc2nc(SCC(=O)N3CCc4ccccc43)sc2c1 → Sa growth 42C = 94; HCMV NEC inh = 15; GIV Gai3 FP = 105; Sa growth 42C second temp = 95
Results for CCN(C(=O)CSC1=NCCS1)c1ccccc1 → Sa growth 42C = 104; HCMV NEC inh = -16; GIV Gai3 FP = x; Sa growth 42C second temp = 71

The main list resumes with the 6 entries that preceded the break.
The line under a structure holds: Sa growth 42C	HCMV NEC inh	GIV Gai3 FP	Sa growth 42C second temp
- O=C(Nc1ccccc1)N1CCCC2CCCCC21 (stereo unspecified)
 : 111	2	102	89
- N#CN[n+]1ccc2ccccc2c1C(=O)c1ccc(Cl)cc1
 : 108	-18	104	87
- Cc1ccc2[nH]c(=O)c3cc(C(=O)N4CCN(c5ccccc5)CC4)sc3c2c1
 : 76	-14	105	86
- COc1ccc(CC(=O)OCC(=O)Nc2ccc3c(c2)OCCO3)cc1
 : 100	-14	x	93
- O=C(CCc1ccccc1)N1CCc2c([nH]c3ccccc23)C1c1ccc(F)cc1 (stereo unspecified)
 : 90	x	102	100
- COc1cc2[nH]c(=S)nc(NCCCOC(C)C)c2cc1OC
 : 94	-4	116	88
- Cc1ccc(COC(=O)c2ccc3c(c2)C(=O)N(CCCN2CCOCC2)C3=O)cc1
 : 85	-17	x	93
- CCOC(=O)c1ccc(-n2sc3ccccc3c2=O)cc1
 : 41	9	x	42
- CC(C)(C)c1csc(CS(=O)(=O)c2cccs2)n1
 : 114	-10	103	74
- NC(=O)c1ccc(NC(=O)COC(=O)c2ccccc2I)cc1
 : 94	-22	x	81
- N#CCCN(Cc1ccccc1)S(=O)(=O)c1ccc(F)cc1
 : 97	-24	101	97
- COc1ccccc1NC(=O)CC(c1cc(OC)c(OC)c(OC)c1)N1Cc2ccccc2C1=O (stereo unspecified)
 : 119	x	106	82
- O=C1c2cccc3cccc(c23)C(=O)N1CC1CCN(S(=O)(=O)c2cccs2)CC1
 : x	-12	102	x
- C=CCn1c(SCc2ccc(Cl)cc2)nc2cc(C(=O)NCc3ccco3)ccc2c1=O
 : 115	x	107	54
- Cc1ccc2occ(CC(=O)Nc3ccc(OC(F)F)cc3)c2c1
 : 89	-5	100	86
- CC(c1ccco1)N(C(=O)c1cccnc1Cl)c1ccccn1 (stereo unspecified)
 : 114	-25	x	81
- CCC(C)n1c(N)c(C#N)c2nc3ccccc3nc21 (stereo unspecified)
 : 104	-52	x	84
- COc1ccc(-c2nnc(SCC(=O)Nc3ccc(F)cc3)s2)cc1
 : 112	x	103	90
- Cc1ccc(C)c(N2CCN(CC(=O)c3ccc4c(c3)CCN4)CC2)c1
 : 83	0	112	61
- Cc1ccccc1OCCCn1c(C(C)O)nc2ccccc21 (stereo unspecified)
 : x	-14	100	x
- O=C1c2ccccc2C(=O)N1CN1C(=O)c2ccccc2C1=O
 : 96	-14	x	97
- O=C(/C=C/c1ccco1)OCN1C(=O)c2ccccc2C1=O
 : 97	-21	x	89
- CCOc1cc(C2C(C(=O)OCc3ccc(OC)cc3)=C(C)NC3=C2C(=O)CC(C)(C)C3)ccc1O (stereo unspecified)
 : x	-18	108	x
- CN1C(=O)c2ccc(N)cc2C1=O
 : 69	-64	x	87
- O=C1c2ccccc2C(=O)N1N1C(=O)c2ccccc2C1=O
 : 101	-28	102	82
- Cc1ccc(CSc2ncc(Cl)c(C(=O)Nc3sc4c(c3C(N)=O)CCCC4)n2)cc1
 : 96	10	103	90
- COc1ccccc1N1CCN(C(=O)C(CC(C)C)NC(=O)C2CCCCC2)CC1 (stereo unspecified)
 : 100	-12	100	87
- CC(C)NC(=O)n1cc(F)c(=O)[nH]c1=O
 : -0.6*	-12	x	0.2*
- Cc1nc2ccccc2c(=O)n1/N=C/c1ccc2ncccc2c1
 : 115	-16	x	94
- Cc1csc2ncc(C(=O)N3CCN(c4ccccc4)CC3)c(=O)n12
 : x	-12	112	x
- CC(C)(C)OC(=O)N1CCC(c2c(C(=O)NCc3ccco3)cnn2-c2ccccc2)CC1
 : 73	x	109	90
- CCC(CC)C(=O)Nc1onc2c1CC(C)CC2 (stereo unspecified)
 : x	-8	99	x
- CCOC(=O)c1ccc(CN(Cc2ccc(Br)cc2)S(=O)(=O)c2cccc(C(F)(F)F)c2)cc1
 : 105	x	100	88
- COc1ccc(-c2nc3cc(NC(=O)c4sc5ccccc5c4Cl)ccc3o2)cc1OC
 : x	-12	105	x
- CCc1ccc(NC(=O)c2cc3cc4ccc(OC)cc4nc3o2)cc1
 : 100	-8	99	85
- COc1ccc(Br)cc1CNC(=O)COCc1cc(-c2ccc3c(c2)OCO3)on1
 : x	1	101	x
- COc1ccc2[nH]cc(CCNC(=O)NC3CCCCC3)c2c1
 : 98	-9&-1	99&102	88
- COCCNC(=O)Cn1c(=O)c(C(F)(F)F)nc2ccccc21
 : x	-43	116	x
- CCC(=O)Nc1ccc(CCc2nc3ccccc3n2-c2ccccc2)cc1
 : x	-2	111	x
- CCOC(=O)C1CCC(CN(Cc2ccc(OC)cc2)S(=O)(=O)c2ccc(C)cc2)CC1 (stereo unspecified)
 : 105	x	104	88
- CCOC(=O)c1c(CN(C)C)n(C)c2cc(Br)c(O)c(CN(C)C)c12
 : 98	9	101	101
- CCOC(=O)C1=C(C)N=c2s/c(=C\c3ccc(N(C)C)o3)c(=O)n2C1c1ccc(OC)cc1OC (stereo unspecified)
 : x	-24	134	x
- O=C(CC1N=C2c3ccccc3N=C(SCC(=O)Nc3cccc(Cl)c3)N2C1=O)NCc1cccs1 (stereo unspecified)
 : 87	5	111	60
- CC(Sc1nnnn1Cc1cccs1)C(=O)Nc1ccc(S(=O)(=O)N2CCCCC2)cc1 (stereo unspecified)
 : 121	-8	x	88
- O=C(CSc1nccn1Cc1ccc(F)cc1)NC1CCCC1
 : 108	x	102	87
- O=C(O)C1CC(O)CN1S(=O)(=O)c1cccc2nsnc12 (stereo unspecified)
 : 89	-82	104	93
- CCCCCCNc1nc(Nc2ccc(I)cc2)nc(OC)n1
 : 81	-8	101	70
- COC(=O)c1ccc(CNC(=O)c2cccc(F)c2)cc1
 : 72	-39	x	82
- N#CCCn1cc(C(=O)CSc2n[nH]c(-c3ccc(Cl)cc3)n2)c2ccccc21
 : 99	8	x	97
- c1ccc(-c2csc(N3CCOCC3)n2)cc1
 : x	-10	97	x
- N#CC(C#N)=C1C=C(c2ccc3c(c2)OCCO3)Oc2ccccc21
 : 96	-11	x	90
- CC(=O)Nc1cccc(OCCCNC(=O)C2CCC2)c1
 : 103	2	107	100
- O=C(O)CCc1nc2ccccc2oc1=O
 : 46	-9	113	38
- CC(OC(=O)c1ccccc1)C(=O)Nc1ccc2c(c1)OCCO2 (stereo unspecified)
 : 95	-11	x	97
- O=S(=O)(c1cccs1)N1CCN(c2nc3ccc(Cl)cc3s2)CC1
 : 93	-8	107	85
- CCCS(=O)(=O)c1c(S(=O)(=O)CCC)c2c(N)cccn2c1C(=O)c1ccc(C)cc1
 : 92	-12	x	83
